VACV Venus inh: qHTS for Stage-Specific Inhibitors of Vaccinia Orthopoxvirus: Venus Reporter Primary qHTS | Vaccinia virus Venus reporter expression, fluorescence | Potency, µM (doses to about 36.5 µM), for the others: at the top dose activity change, negative = inhibition, hits mostly inhibitors | actives 0.46% (n = 330,000) | AID 720580, 2013; active means well fitted inhibition curve with a large enough effect; inconclusive means small, poorly fitted or top-dose-only effect; inactive means no such curve, though single readings can be large or run the other way; tested in A549 cells; further: nearly all actives have a fitted effect of over 30% in size; inactives centre near -10
Vaccinia mCherry: qHTS for Stage-Specific Inhibitors of Vaccinia Orthopoxvirus: mCherry Reporter Primary qHTS; AID 720579, 2013; Vaccinia virus mCherry reporter infection, fluorescence; about a quarter of the inactives have no number; actives 0.63% (n = 310,000); Potency, µM (top dose mostly 36.5 µM), for inactives: top-dose activity change, negative = inhibition, most hits filed as inhibitors; active = well fitted inhibition curve with a large enough effect; inconclusive = small, poorly fitted or top-dose-only effect; inactive = no such curve, though single readings can be large or run the other way; tested in A549 cells; further: nearly all actives have a fitted effect of over 35% in size; inactives centre near -10
* = called active by the depositor; i = inactive; ? = inconclusive; · = no result given; & = joins results of further samples; [ ] = remark or other dose. On the % scale 0 is the no-effect control and ±100 the full control effect; potency means the concentration at half of the fitted maximal effect.

nr | molecule | VACV Venus inh | Vaccinia mCherry
1 | Cc1c(NC(=O)/C(=C/c2cccs2)NC(=O)c2ccccc2)c(=O)n(-c2ccccc2)n1C | -17% | -9%
2 | CCN(CC)C(=O)[C@H]1CC(CC(=O)NCCC2=CCCCC2)C(=O)N2CCc3c([nH]c4ccc(OC)cc34)[C@]12C (some centres not stated) | ? | ?
3 | CCOC(=O)c1cnc(SCC(=O)c2ccc3c(c2)OCCO3)nc1N | -4% | i
4 | O=C(Nc1ccc(-c2nc3ccccc3o2)c(O)c1)c1cc(Cl)ccc1Cl | -4% | -21%
5 | COc1nc(NC2OC(CO)C(O)C(O)C2O)c(N)c(=O)[nH]1 (configuration not stated) | -1% | -14%
6 | Cc1ccc2oc(=O)cc(CN3CCN(C/C=C/c4ccccc4)CC3)c2c1 | 2%[7.34 µM] | -16%[7.34 µM]
7 | COc1ccc2c(CC(=O)OCC(=O)c3ccc(F)cc3)coc2c1 | 3% | -10%
8 | COc1cccc(C(=O)NNC(=O)c2ccc(NS(=O)(=O)c3cccs3)cc2)c1OC | -16% | -2%
9 | Cc1ccc(S(=O)(=O)N/N=C\c2ccc3c(c2)OCO3)c(C)c1 | -5% | -4%
10 | COc1ccc2oc(=O)cc(CN3CCN(c4ccccc4OC)CC3)c2c1 | -4% | -6%
11 | Cc1[nH]c2ccc(-c3n[nH]c(=S)n3C)cc2c1C | -15% | -17%
12 | Cc1cccc(NC(=O)CCC(=O)N/N=C/c2ccco2)c1C | -13% | i
13 | COc1ccc2c(c1)CCc1c(C(=O)Nc3cc(C)ccc3O)noc1-2 | -13% | -28%
14 | Cc1ccc(C)c(N2CCN(S(=O)(=O)c3c(C(=O)N4CCC(C)CC4)c(C)n(C)c3C)CC2)c1 | -23% | -11%
15 | NC(=O)CN1CCOCCN(CC(N)=O)CCOCC1 | -10% | i
16 | COc1cc(/C=N\NC(=O)c2c(C)nc3cc(C)ccn23)ccc1O | -12% | -8%
17 | O=C(O)c1cccc(S(=O)(=O)Nc2ccccc2Cc2ccccc2)c1 | -9% | -10%
18 | NCC(c1ccccc1)(c1ccccc1)c1ccccc1 | -26% | -22%
19 | COc1ccc(/C=N/OCC(=O)N2CC3(C)CC2CC(C)(C)C3)cc1OC (configuration not stated) | -23% | -25%
20 | Cc1ccc(-c2nn(CC(=O)NC3CCCC3)c3c2cnc2ccc(F)cc23)cc1C | 3% | -8%
21 | CC(=O)c1cnc(Nc2cccc(Cl)c2Cl)s1 | -17% | ?
22 | COc1cc(C2CC(=O)c3cnc(NC(=O)c4ccco4)nc3C2)cc(OC)c1OC (configuration not stated) | 0% | 1%
23 | CCCc1nc2ccccc2c(=O)n1NC(=O)c1c(O)c2ccccc2n(C)c1=O | -13% | i
24 | O=C(CCCn1ccc2cc(S(=O)(=O)N3CCCC3)ccc21)NCc1ccc(Cl)cc1 | -29%[7.34 µM] | -26%[7.34 µM]
25 | CN1C(=O)NC(=O)C1c1ccccc1 (configuration not stated) | 0% | i
26 | CCCn1c(=O)c2c(nc3n2CCS3)n(C)c1=O | 0% | -14%
27 | NP(=O)(Nc1ccccc1)Nc1ccccc1 | 0% | -14%
28 | Nc1ncnc2c1ncn2[C@@H]1O[C@H](C(=O)N[C@@H](CO)c2ccccc2)[C@@H](O)[C@H]1O | -5% | i
29 | O=C(COC(=O)c1c(Cl)cccc1Cl)Nc1ccccc1Br | -24% | i
30 | COc1cccc(NC(=O)N2CCN3CCCCC3C2)c1 (configuration not stated) | -7% | -10%
31 | COc1cccc(C(=O)Nc2nc3nc(C)c(C)c(=O)n3[nH]2)c1 | -7% | -3%
32 | COc1ccc(CN2C(=NC(=O)c3ccccc3)SC3CS(=O)(=O)CC32)cc1OC (configuration not stated) | -14% | -18%
33 | CC(C)CC(CO)N1CCN(C(=O)c2ccc(Cl)cc2)CCC1=O (configuration not stated) | -2% | -13%
34 | O=C(COc1ccccc1)Nc1nnc(S(=O)(=O)N2CCCC2)s1 | -9%&-12% | -18%
35 | CCOCCCNC(=O)Cn1cnc2c(cnn2-c2ccc(C)c(C)c2)c1=O | -15% | -17%
36 | COc1cc(CC2C(=O)N(C)C(=O)N(C)C2=O)ccc1OCc1ccccc1 | -2% | -9%
37 | O=C(NC1CC2CCCC(C1)N2C(=O)NCc1ccccc1)C1CC1 (configuration not stated) | -5% | -12%
38 | CC(Sc1ccccc1)C(=O)N1CCN(S(=O)(=O)c2ccc(Cl)cc2)CC1 (configuration not stated) | -9% | -11%
39 | Cc1onc(-c2ccccc2Cl)c1C(=O)Nc1cnn(Cc2ccccc2)c1 | -20% | i
40 | O=C(N/N=C/c1cccn1-c1ccc([N+](=O)[O-])cc1)c1cccnc1 | -53% | ?
41 | COc1ccc(NC(=O)c2ccc(S(=O)(=O)N(C)C)cc2)cc1 | -8% | -6%
42 | C=CCC12C=C(OC)C(=O)OC(OC)(C1O)[C@H](c1ccc3c(c1)OCO3)[C@H]2C (some centres not stated) | 4% | -3%
43 | Brc1ccc(-[n+]2c(-c3ccccc3)cc(-c3ccccc3)cc2-c2ccccc2)cc1 | ? | 0%
44 | NS(=O)(=O)c1ccc(CCNC2CC(=O)N(Cc3ccccc3)C2=O)cc1 (configuration not stated) | -4% | -10%
45 | COc1ccc(Cc2nnc(C(=O)NCCCN3CCN(c4ccccc4F)CC3)o2)cc1OC | -18% | -15%
46 | O=C(NCCc1cccs1)C1CC(c2ccc([N+](=O)[O-])cc2)=NO1 (configuration not stated) | -11% | -23%
47 | CN(C)S(=O)(=O)c1cccc(NC(=O)Cc2ccc(-c3ccccc3)cc2)c1 | ? | -26%
48 | O=c1[nH]c(C2CCCN(S(=O)(=O)c3ccc(F)cc3)C2)nc2c1nnn2Cc1ccccc1 (configuration not stated) | -4% | i
49 | COc1cc(COc2ccc(-c3nnco3)cc2)ccc1OC(F)F | -3% | -15%
50 | CC(=O)N(Cc1ccc2c(c1)OCO2)Cc1cc2ccc(C)cc2nc1-c1cccc(C)c1 | 27% | -12%
51 | CCOC(=O)C1=C[C@@H](C(C)(C)C)N(S(=O)(=O)c2ccccc2C)[C@H]1c1ccc(Cl)cc1 | 0% | 4%
52 | O=C(O)C1=C[C@@H](c2ccccc2)C[C@@H](OCCCCO)O1 | -9% | i
53 | Cc1ccc(NC(=O)COC(=O)CCC(=O)c2ccc(C(C)(C)C)cc2)c([N+](=O)[O-])c1 | -8% | -10%
54 | Cc1ccc(OCC(=O)Nc2ccc(Cl)c(-c3nc4ncccc4o3)c2)cc1C | -4% | -12%
55 | Nc1ccn(CCCN2CCN(Cc3cccc4ccccc34)CC2)c(=O)n1 | -30% | -19%
56 | CC(C)C[C@@H](C(=O)NC1CC1)N1C(=O)N2CCc3c([nH]c4ccccc34)[C@@]2(C)C1=O | -3% | -10%
57 | COc1ccc2sc(-c3ccc(N(C)C)cc3)c(-c3cnc(OC)nc3)c2c1 | -16% | ?
58 | O=C(N/N=C/c1ccc2c(c1)OCO2)c1ccc2c(c1)OCO2 | -13% | ?
59 | COC(=O)CSc1nnc(CSc2nc(C)cc(C)n2)o1 | 6% | -1%
60 | CC(NS(=O)(=O)c1ccc(OCC(=O)Nc2cccc([N+](=O)[O-])c2)cc1)c1ccccc1 (configuration not stated) | -17% | ?

Next section.
nr | molecule | VACV Venus inh | Vaccinia mCherry
61 | Cc1ccc2[nH]c3c(c2c1)CCCC3NCCO (configuration not stated) | -17% | i
62 | O=C(CN1C(=O)NC2(CCCCC2)C1=O)NCCc1c[nH]c2ccccc12 | -3% | -15%
63 | CN1C(=O)Cc2cc(S(=O)(=O)NCc3cccs3)ccc21 | 2% | 9%
64 | Cc1cc(C)c(S(=O)(=O)n2ccc3ccccc32)c(C)c1 | -8% | -10%
65 | O=C(COC(=O)c1ccc(Cl)nc1)Nc1ccc2c(c1)OCO2 | -12% | -24%
66 | CN(C(=O)CSc1nc2ccc([N+](=O)[O-])cc2s1)C1CCS(=O)(=O)C1 (configuration not stated) | 3%[7.34 µM] | i[7.34 µM]
67 | CC(/C=N/n1c(COc2ccccc2)n[nH]c1=S)=C\c1ccco1 | -10% | i
68 | O=C(Cc1ncc(C(F)(F)F)cc1Cl)NC1CC1 | -11% | i
69 | Cc1ccccc1COC(=O)CCC1=NS(=O)(=O)c2ccccc2N1 | -8% | -9%
70 | COCc1ccc(C(=O)NC2CCCc3c2cnn3-c2cc(C)cc(C)c2)s1 (configuration not stated) | 3%[7.34 µM] | i[7.34 µM]
71 | CCOC(=O)C1CCN(C(=O)Cn2cc(C(=O)OC)c3ccccc32)CC1 | 5% | -4%
72 | FC(F)(F)c1cnc(-c2cnc(-c3cccnc3)nc2)c(Cl)c1 | -6% | -5%

Among those listed so far, these have a CF3 group:
nr | molecule | VACV Venus inh | Vaccinia mCherry
68 | O=C(Cc1ncc(C(F)(F)F)cc1Cl)NC1CC1 | -11% | i
72 | FC(F)(F)c1cnc(-c2cnc(-c3cccnc3)nc2)c(Cl)c1 | -6% | -5%

The results go on:
nr | molecule | VACV Venus inh | Vaccinia mCherry
73 | O=[N+]([O-])c1ccc(C(=S)N2CCN(Cc3ccccc3)CC2)cc1 | -19% | ·
74 | CCN(Cc1ccccc1)S(=O)(=O)c1c[nH]c(C(=O)OC)c1 | -6% | -16%
75 | CN(C)CCCNC(=O)/C=C/c1ccc(OCc2c(F)cccc2Cl)cc1 | -26% | i
76 | COc1cccc(/C=C/C(=O)Nc2ccccc2N2CCOCC2)c1 | -14% | i
77 | CCN(CC(=O)Nc1ccc2c(c1)OCCO2)C(=O)COc1ccc(C)cc1 | -16% | i
78 | Cc1nc(SCC(=O)N2CCCCC2)c2c(C)c(C)sc2n1 | -9% | 15%
79 | Cc1cccc(-n2nc(C)c(C(=O)Nc3cc(C)ccc3C)c2-n2cccc2)c1 | -21% | -12%
80 | CCOc1ccc(OCC(=O)OCC(=O)Nc2ccc3[nH]c(=O)[nH]c3c2)cc1 | -14% | i
81 | N#Cc1cccc(NC(=O)c2nc(-c3ccccc3)n(-c3ccccc3)n2)c1 | -20% | -3%
82 | CCOC(=O)C(C(=O)c1ccccc1)C(c1ccccc1)c1nccc2ccccc12 (configuration not stated) | -19% | -10%
83 | O=C1CCN(Cc2ccccc2)C(=O)N1 | 1% | -8%
84 | CC(OC(=O)c1ccc(-n2cnnn2)cc1)C(=O)Nc1ccccc1F (configuration not stated) | -6% | -7%
85 | CCCn1nc2cc(C(=O)NCCCCc3ccccc3)ccc2c1OCC | -25% | i
86 | CC1CCN(S(=O)(=O)c2ccc(C(=O)N3CCCCC3C(=O)O)cc2)CC1 (configuration not stated) | -13% | -13%
87 | O=C(Cc1csc(Nc2nc(=S)[nH]c3ccccc23)n1)NCCCN1CCN(c2ccccc2F)CC1 | ? | ?
88 | Cc1cc(C(=O)Nc2ccccc2C(=O)O)ccc1NC(=O)COc1ccccc1Cl | -8% | -14%
89 | CCCn1c(SCC(=O)Nc2cccc(S(=O)(=O)N(C)C)c2)nc2ccccc2c1=O | -10% | i
90 | COCCCN1CCN(C2Cc3ccccc3Sc3ccc(Cl)cc32)CC1 (configuration not stated) | ? | ?
91 | Nc1c(C(=O)Nc2ccc(OC(F)(F)F)cc2)sc2nc(-c3ccncc3)ccc12 | ? | -14%
92 | CN(C(=O)Cn1nc(Cl)ccc1=O)C1CCCN(Cc2ccccc2F)C1 (configuration not stated) | -11% | -19%
93 | C[C@H](CO)N1C[C@H](C)[C@@H](CN(C)S(=O)(=O)c2ccc(F)cc2)Oc2c(NC(=O)c3ccncc3)cccc2C1=O | 9% | -11%
94 | Cc1cc(-c2ccccc2)nc2cc(C(N)=O)nn12 | 58%[activator] | ·
95 | CC(CNC(=S)Nc1cc(F)cc(F)c1)CSc1ccc(Cl)cc1 (configuration not stated) | -26% | ?
96 | COc1cc(Cl)c(C)cc1NC(=O)COC(=O)c1cnc(C)cn1 | 7% | ·
97 | O=C(C[n+]1cc(Br)cc(Br)c1)c1ccccc1 | 4%&-7% | -19%
98 | CCN(CC)C(c1ccc(F)cc1)c1nnnn1CC1CCCO1 (configuration not stated) | -8% | 0%[1.46 µM]
99 | COC(=O)c1ccc(N2CCOCC2)c(F)c1 | -7% | -9%
100 | CCc1nnc(NC(=O)CSc2ccc(-c3ccccc3OC)nn2)s1 | 5% | 17%
101 | O=C(Oc1cccc2cccnc12)c1ccc(N2C(=O)C3C4CCC(C4)C3C2=O)cc1 (configuration not stated) | -21% | -26%
102 | Cc1cn2c(=O)cc(COC(=O)c3ccc(NC(=O)c4ccc(F)cc4)cc3)nc2s1 | -14% | -11%
103 | CC1=CC(C)(C)N(S(=O)(=O)c2ccc(F)cc2)c2ccccc21 | ? | -13%
104 | COc1ccc(-n2nc(C(=O)Nc3ccc4c(c3)OCO4)c3ccccc3c2=O)cc1 | 0% | -11%
105 | CN1CCN(CCCNC(=O)Cn2c(-c3cccs3)cc3cc(Cl)ccc32)CC1 | -13% | -9%
106 | O=C(NCc1ccco1)c1ccc(COCC(F)(F)C(F)F)cc1 | -1% | i
107 | Cc1ccccc1OCc1nc(C#N)c(N2CCCC2)o1 | 3% | i
108 | CCN1C(=O)[C@H]2[C@H]3CN=C(SCc4ccc(C(=O)OC)cc4)N3[C@@](CC)(C(=O)OC)[C@H]2C1=O | -10% | ?
109 | COc1ccc(CC(=O)Nc2ccc(OC)nc2)cc1 | -10% | -16%
110 | COc1cccc(C(=O)NCCS(=O)(=O)N2CCOCC2)c1 | -13% | -19%
111 | O=C(COC(=O)c1cccc(Br)c1)NCC1CCCO1 (configuration not stated) | 1% | -20%
112 | O=c1cc(-c2ccc(O)cc2)oc2cc(O)c(C3OC(CO)C(O)C(O)C3O)c(O)c12 (configuration not stated) | -15% | -10%
113 | O=C1NC[C@H](CCCCN2C[C@H](Cc3ccccc3)N(CCc3ccccc3)C(=O)C2=O)N(CCc2ccc(O)cc2)C1=O | -2% | 1%

Screens (PubChem BioAssay)
